Screening data from PubChem BioAssay.
CSC inhib: cancer stem cell inhibition; cancer stem cell-like cells viability, luminescence; inhibition, % at 7.5 µM; 300,000 compounds, 1.1% hits; AID 2717;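 active means mean at 75% or more and at least half the replicates too; inconclusive means mean and replicates disagree; tested in HMLE shEcad cells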;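 further: 0% = median of negative and 100% = median of positive control wells; the first replicate is given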
UUG fidelity: alters start codon recognition fidelity in yeast; S. cerevisiae UUG-firefly luciferase reporter, luminescence/redox ratio; activity score, % at 18.7 µM; 350,000 compounds, 0.13% hits;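 active means replicate mean at a twofold rise or more, about +100% in these data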;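 further: firefly luciferase made from a UUG start codon reports start codon fidelity; reporter light over untreated wells divided by growth signal over untreated wells; some hits fall short of that in this replicate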
MT1-MMP act inh: MT1-MMP (human) activation inhibition | P50281 | HT1080 RFP-PRO-GFP cells, GFP/RFP ratio fluorescence, overnight; percent of plate control window, DMSO zero | GFP/RFP ratio change, % at 20 µM | 360,000 compounds, 0.061% hits | AID 651647;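 active means GFP/RFP ratio change of at least 30% with cell ATP level not reduced by more than half and red fluorescence within 50% of control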; further: strong numbers were not always called active
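Material: RFP-PRO-GFP reporter HT1080 cells. Dosing: single-point 20 µM compound, 1% DMSO. Controls: DMSO and RFP-L50D-GFP cell wells. Timing: cells overnight before dosing, compound overnight, 37 °C, 5% CO2. Measure: GFP/RFP fluorescence ratio.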
PABP FP inh: PABP-poly(A) binding inhibition; P11940; PABP-poly(A) RNA binding, fluorescence polarization; inhibition, % at 35 µM; 290,000 compounds, 1% hits;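 active means 50% or more with normal probe brightness, or confirmed in later tests; inconclusive means above 50% with abnormal brightness, or retests that disagree; inactive means below 50% or failed in later tests; about a fifth of its hits are not listed in these tables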;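 further: calls also rest on retests at 20 µM and on dose response follow-up; controls were probe without protein and protein plus probe with vehicle; some compounds called inactive have numbers as strong as hits; many hits fall short of the cut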
Target sequence (P11940 whole entry, looked up): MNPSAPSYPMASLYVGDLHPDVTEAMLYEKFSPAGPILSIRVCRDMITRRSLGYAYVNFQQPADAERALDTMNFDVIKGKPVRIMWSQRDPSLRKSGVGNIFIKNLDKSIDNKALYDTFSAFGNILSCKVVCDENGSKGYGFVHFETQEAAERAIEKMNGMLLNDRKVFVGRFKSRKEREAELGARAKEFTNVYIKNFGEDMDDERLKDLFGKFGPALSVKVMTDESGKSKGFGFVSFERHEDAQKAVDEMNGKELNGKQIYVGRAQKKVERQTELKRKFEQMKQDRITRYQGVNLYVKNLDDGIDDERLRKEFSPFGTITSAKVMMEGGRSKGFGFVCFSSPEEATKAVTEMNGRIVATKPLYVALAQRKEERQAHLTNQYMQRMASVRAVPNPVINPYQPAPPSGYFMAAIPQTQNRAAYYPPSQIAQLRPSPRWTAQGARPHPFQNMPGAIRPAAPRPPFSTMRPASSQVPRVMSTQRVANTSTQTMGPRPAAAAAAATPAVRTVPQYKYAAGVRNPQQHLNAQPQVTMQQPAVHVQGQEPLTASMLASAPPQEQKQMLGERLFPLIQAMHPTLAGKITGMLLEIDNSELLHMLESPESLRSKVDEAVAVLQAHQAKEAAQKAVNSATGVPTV
Rce1 inh: blocks yeast Ras-converting enzyme. 290,000 compounds, 0.27% hits. Q03530. yeast membranes, quenched prenylated peptide cleavage fluorescence. calls only. AID 2563;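 active means fall in fluorescence gain of 50% or more versus controls, with final raw signal at or below 3038400; inconclusive means same 50% fall but final raw signal above 3038400; inactive means fall in fluorescence gain under 50%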;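 further: plate controls were neutral control wells for no effect and wells lacking membranes for full effect; tested at 10 µM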
Target sequence (Q03530 whole entry, looked up): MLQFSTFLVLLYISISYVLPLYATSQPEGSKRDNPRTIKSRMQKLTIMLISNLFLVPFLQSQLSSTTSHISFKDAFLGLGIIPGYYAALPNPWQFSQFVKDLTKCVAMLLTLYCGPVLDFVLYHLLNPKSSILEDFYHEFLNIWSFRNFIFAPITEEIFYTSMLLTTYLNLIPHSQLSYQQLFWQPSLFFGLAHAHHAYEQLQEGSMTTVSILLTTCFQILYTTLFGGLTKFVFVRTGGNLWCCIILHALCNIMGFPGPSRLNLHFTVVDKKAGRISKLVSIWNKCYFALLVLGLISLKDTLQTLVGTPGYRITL
Env fusion inh: blocks HIV Env-driven cell-cell fusion; HeLa-JRFL Env/CEM21 cell fusion, luciferase; inhibition, % at 12.3 µM; 360,000 compounds, 1.1% hits; AID 651610;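 active means mean replicate inhibition score of at least 50 and every replicate individually at or above 50; inconclusive means only one of the two criteria met; inactive means mean below 50 and not all replicates reaching 50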;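 further: 0% = plate neutral controls and 100% = maraviroc near 300 nM; one replicate is shown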
eIF4H inh: inhibitors of RNA binding by human eIF4H; 290,000 compounds, 0.94% hits; Q15056; eIF4H fluorescence polarization binding assay; inhibition, % at 35 µM;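 active means 50% or more with normal probe brightness, or confirmed in later tests; inconclusive means above 50% with abnormal brightness, or retests that disagree; inactive means below 50% or failed in later tests; about a fifth of its hits are not listed in these tables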;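 further: calls also rest on retests at 20 µM and on dose response follow-up; 0% = protein and probe with vehicle and 100% = probe without protein; strong numbers were not always called active; many hits fall short of the cut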
eIF4H inh retest: also measured in eIF4H inh; calls as there; inhibition, %; compound at 20 µM; confirmation average;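 mean of two retest wells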
PABP FP inh retest: second read-out of PABP FP inh, no call of its own (marks repeat the call); inhibition, %; compound at 20 µM; confirmation repeats;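 mean of two retest wells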
MT1-MMP act inh RFP: second read-out of MT1-MMP act inh, no call of its own (marks repeat the call); RFP signal change, %; measured here: RFP expression control read;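 0 = vehicle wells; hits needed this value within 50% of zero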
* marks the source's active call; other numbers are inactive results.

CN1/C(=C\C=N\NC(=O)c2ccccc2Br)C(C)(C)c2ccccc21 was read as CSC inhib 11, UUG fidelity -21, MT1-MMP act inh 10, PABP FP inh -1, Rce1 inh inactive, Env fusion inh 30, eIF4H inh inconclusive and MT1-MMP act inh RFP 11.
For CCC(=O)c1ccc(N2CCCCC2)c(F)c1 the results were CSC inhib 17, MT1-MMP act inh 3, PABP FP inh -1, Env fusion inh -12, eIF4H inh 3 and MT1-MMP act inh RFP 6.
COC(=O)c1ccc(COc2ccc(/C=N/NC(N)=S)cc2)o1 was read as CSC inhib 5, UUG fidelity -20, MT1-MMP act inh -5, PABP FP inh -7, Env fusion inh 0, eIF4H inh 3 and MT1-MMP act inh RFP -7.
`CC1CN(C)C(C)c2c1oc1ccc(N)cc21` (stereo unspecified) gave CSC inhib -21, MT1-MMP act inh 3, PABP FP inh 5, Rce1 inh inactive, Env fusion inh 0, eIF4H inh 3 and MT1-MMP act inh RFP 2.
Screening Cc1cccc(-n2c(SCC(=O)NCc3ccc4c(c3)OCO4)nc3ccccc3c2=O)c1 returned CSC inhib 4, MT1-MMP act inh -2, PABP FP inh -9, Rce1 inh inactive, Env fusion inh 39, eIF4H inh -6 and MT1-MMP act inh RFP -1.
COc1ccc2nc(-c3ccccn3)[nH]c2c1 was read as CSC inhib 12, UUG fidelity -28, MT1-MMP act inh 2, PABP FP inh -13, Rce1 inh inactive, Env fusion inh -94, eIF4H inh -10 and MT1-MMP act inh RFP -3.
`Cc1nc2ccccc2nc1SCC(=O)N1CCC(C)CC1` gave CSC inhib 1, UUG fidelity -11, MT1-MMP act inh 5, PABP FP inh 4, Rce1 inh inactive, Env fusion inh 40, eIF4H inh 0 and MT1-MMP act inh RFP -5.
`Cc1cc(NC(=O)NC(=O)c2ccccc2)no1` gave CSC inhib 2, UUG fidelity -15, MT1-MMP act inh -1, PABP FP inh -1, Rce1 inh inactive, Env fusion inh -8, eIF4H inh 10 and MT1-MMP act inh RFP -1.
`COc1ccc(Cl)cc1NC(=O)Cc1c(F)cccc1Cl` gave CSC inhib -11, MT1-MMP act inh 3, PABP FP inh 2, Rce1 inh inactive, eIF4H inh 5 and MT1-MMP act inh RFP 2.
`Fc1ccc(-c2cc(-c3ccccc3)nc(-n3cccn3)n2)cc1` gave CSC inhib 12, UUG fidelity 1, MT1-MMP act inh -8, PABP FP inh -3, Rce1 inh inactive, Env fusion inh -2, eIF4H inh 2 and MT1-MMP act inh RFP -5.
Cc1ccccc1NC(=O)NC1CCCCCCC1 was read as CSC inhib 4, UUG fidelity -11, MT1-MMP act inh -3, PABP FP inh 0, Rce1 inh inactive, Env fusion inh 2, eIF4H inh -14 and MT1-MMP act inh RFP -2.
For C[C@H](NS(=O)(=O)c1ccc(Cl)cc1)C(=O)OCC(=O)NC(=O)Nc1ccc2c(c1)OCCO2 the results were CSC inhib -1, MT1-MMP act inh 1, PABP FP inh -7, Rce1 inh inactive, Env fusion inh -17, eIF4H inh -4 and MT1-MMP act inh RFP 5.

3 entries already listed, sorted by length of the SMILES, low to high:
For CCC(=O)c1ccc(N2CCCCC2)c(F)c1 the results were CSC inhib 17, MT1-MMP act inh 3, PABP FP inh -1, Env fusion inh -12, eIF4H inh 3 and MT1-MMP act inh RFP 6.
`Cc1nc2ccccc2nc1SCC(=O)N1CCC(C)CC1` gave CSC inhib 1, UUG fidelity -11, MT1-MMP act inh 5, PABP FP inh 4, Rce1 inh inactive, Env fusion inh 40, eIF4H inh 0 and MT1-MMP act inh RFP -5.
`COc1ccc(Cl)cc1NC(=O)Cc1c(F)cccc1Cl` gave CSC inhib -11, MT1-MMP act inh 3, PABP FP inh 2, Rce1 inh inactive, eIF4H inh 5 and MT1-MMP act inh RFP 2.

(listing goes on)
Screening Cc1cccc(N2CCN(C(=O)c3ccc4ccccc4c3)CC2C)c1 (stereo unspecified) returned CSC inhib 43, UUG fidelity 3, MT1-MMP act inh -1, Env fusion inh -4 and MT1-MMP act inh RFP -5.
`CCOc1ccc(-c2ccc(C3=CC(=O)C[C@H](c4ccc(F)cc4)C3)cc2)cc1` gave UUG fidelity -14, MT1-MMP act inh 4, Env fusion inh 6 and MT1-MMP act inh RFP 5.
Screening CC(C)C(NC(=O)c1ccccc1)C(=O)OCC(=O)N1CCCCC1 (stereo unspecified) returned CSC inhib -15, UUG fidelity -18, MT1-MMP act inh -1 and MT1-MMP act inh RFP -1.
For COc1ccc(OC2CCN(S(=O)(=O)c3ccc(F)cc3)CC2)cc1 the results were CSC inhib 12, UUG fidelity -12, MT1-MMP act inh 1, PABP FP inh 5, Rce1 inh inactive, Env fusion inh -1, eIF4H inh 4 and MT1-MMP act inh RFP -1.
CCN(CC)Cc1c(CC(C)C)oc(C)c1C(=O)O was read as CSC inhib -11, UUG fidelity -29, MT1-MMP act inh -6, PABP FP inh 7, Rce1 inh inactive, Env fusion inh -4, eIF4H inh -11 and MT1-MMP act inh RFP -4.
Screening O=[N+]([O-])c1ccc(S(=O)(=O)Nc2nc(-c3ccccc3)cs2)cc1 returned CSC inhib 11, UUG fidelity -1, MT1-MMP act inh 10, PABP FP inh 4, Rce1 inh inactive, Env fusion inh 5, eIF4H inh 0 and MT1-MMP act inh RFP -5.
COc1cc(Nc2ccn3nc(-c4ccccc4Cl)cc3n2)cc(OC)c1OC was read as UUG fidelity -7, MT1-MMP act inh -9, Env fusion inh 1 and MT1-MMP act inh RFP -8.
Screening c1ccc2nc3c(cc2c1)CCCCC3 returned CSC inhib -13, UUG fidelity 0, MT1-MMP act inh 2, PABP FP inh 5, Rce1 inh inactive, Env fusion inh 8, eIF4H inh 0 and MT1-MMP act inh RFP 5.
COC(=O)c1c(F)c(F)c(N2CCOCC2)c(F)c1F was read as CSC inhib -14, UUG fidelity -19, MT1-MMP act inh 3, PABP FP inh -3, Rce1 inh inactive, eIF4H inh 2 and MT1-MMP act inh RFP 3.
`O=C(O)c1ccccc1NC(=S)NC(=O)c1cccc2ccccc12` gave CSC inhib 3, UUG fidelity -17, MT1-MMP act inh 1, PABP FP inh 8, Rce1 inh inactive, Env fusion inh -5, eIF4H inh 7 and MT1-MMP act inh RFP 9.
Screening COc1ccc(C(=O)NCCS(=O)(=O)NCc2ccco2)cc1 returned CSC inhib -6, UUG fidelity 2, MT1-MMP act inh 2, Rce1 inh inactive, Env fusion inh -4 and MT1-MMP act inh RFP 6.
CNCCC(=O)N1c2ccccc2CCc2ccc(NC(=O)OC)cc21 was read as CSC inhib -3, UUG fidelity -18, MT1-MMP act inh 7, PABP FP inh -4, Rce1 inh inactive, Env fusion inh 11, eIF4H inh 4 and MT1-MMP act inh RFP 13.
Cc1cccc(-n2nc3c(c2NC(=O)c2c(F)cccc2F)CS(=O)(=O)C3)c1C was read as CSC inhib -4, UUG fidelity -23, MT1-MMP act inh 2, PABP FP inh 7, Rce1 inh inactive, Env fusion inh 6, eIF4H inh -14 and MT1-MMP act inh RFP 3.
Cc1cc(C(=O)Nc2cccnc2)no1 was read as CSC inhib -14, MT1-MMP act inh -2, PABP FP inh 4, Rce1 inh inactive, eIF4H inh 2 and MT1-MMP act inh RFP 2.
`COc1ccc(NC(=O)Cn2c(=O)n(CC3CCCO3)c(=O)c3cc(OC)c(OC)cc32)c(OC)c1` (stereo unspecified) gave CSC inhib 9, UUG fidelity -8, MT1-MMP act inh -5, PABP FP inh -2, Rce1 inh inactive, Env fusion inh -30, eIF4H inh -10 and MT1-MMP act inh RFP 1.
Screening CC(C)C(=O)N(c1ccc(F)cc1)C1C=CS(=O)(=O)C1 (stereo unspecified) returned CSC inhib -7, UUG fidelity -18, MT1-MMP act inh 1, PABP FP inh -4, Rce1 inh inactive, eIF4H inh -9 and MT1-MMP act inh RFP 0.
`COc1ccc(/C(C)=N/NC(=O)c2ccccc2N)cc1` gave CSC inhib 6, UUG fidelity -13, MT1-MMP act inh -3, PABP FP inh -4, Rce1 inh inactive, Env fusion inh 5, eIF4H inh -2 and MT1-MMP act inh RFP -1.
Screening COc1ccc(/C(O)=C2/C(=O)C(=O)N(c3ccccn3)C2c2ccc(C(C)C)cc2)cc1 (stereo unspecified) returned MT1-MMP act inh 2, PABP FP inh 5, Rce1 inh inactive, Env fusion inh -24, eIF4H inh -6 and MT1-MMP act inh RFP 8.
`Cc1cc(C)cc(NC(=O)Cc2ccc(NC3=NC4CS(=O)(=O)CC4S3)cc2)c1` (stereo unspecified) gave CSC inhib 11, UUG fidelity 0, MT1-MMP act inh 0, PABP FP inh 1, Rce1 inh inactive, Env fusion inh -5, eIF4H inh -6 and MT1-MMP act inh RFP 2.
CNc1nc(SC)nc(N2CCOCC2)n1 was read as CSC inhib -18, UUG fidelity -9, MT1-MMP act inh -4, PABP FP inh -3, Rce1 inh inactive, eIF4H inh 2 and MT1-MMP act inh RFP -9.
CCOC(=O)c1c(NC(=O)CCCN2CCOCC2)sc2c1CC(C)(C)OC2 was read as CSC inhib -7, UUG fidelity -1, MT1-MMP act inh -3, PABP FP inh 10, Rce1 inh inactive, eIF4H inh 2 and MT1-MMP act inh RFP 1.
Cc1ccccc1-c1ccc(CN2CCN(C)C(CCO)C2)cc1 (stereo unspecified) was read as CSC inhib inconclusive, UUG fidelity 1, MT1-MMP act inh 2, PABP FP inh -2, Rce1 inh inactive, Env fusion inh 17, eIF4H inh -2 and MT1-MMP act inh RFP 0.
Screening Cn1c(-c2ccccc2O)cc2ccccc21 returned CSC inhib 11, UUG fidelity -2, MT1-MMP act inh -7, PABP FP inh 37, Rce1 inh inactive, eIF4H inh 14 and MT1-MMP act inh RFP -4.
`COc1cc(SC)ccc1C(=O)NCCOc1ccc(Cl)cc1` gave CSC inhib 19, MT1-MMP act inh 2, PABP FP inh 1, Rce1 inh inactive, Env fusion inh -16, eIF4H inh -5 and MT1-MMP act inh RFP 5.
For COc1cc(NC(=O)CSc2nc3c(c(=O)[nH]2)CCCC3)cc(OC)c1OC the results were CSC inhib 5, MT1-MMP act inh 1, PABP FP inh 1, Rce1 inh inactive, Env fusion inh 3, eIF4H inh -10 and MT1-MMP act inh RFP -2.
COC(=O)Nc1nnc(-c2ccco2)s1 was read as CSC inhib 2, UUG fidelity -3, MT1-MMP act inh 2, PABP FP inh 49, Rce1 inh inactive, Env fusion inh -1, eIF4H inh 65, eIF4H inh retest 46, PABP FP inh retest 12 and MT1-MMP act inh RFP 5.
For COc1cc(OC)c(C(=O)OCC(=O)NCC2CCCCC2)cc1OC the results were UUG fidelity -12, MT1-MMP act inh 5, Env fusion inh -2 and MT1-MMP act inh RFP 1.
Screening O=C(O)c1ccc(COc2ccccc2/C=C2\NC(=O)N(Cc3ccccc3)C2=O)cc1 returned CSC inhib -1, MT1-MMP act inh 0, PABP FP inh 0, Rce1 inh inactive, Env fusion inh 19, eIF4H inh 0 and MT1-MMP act inh RFP 3.

Looked up one by one from the entries so far, 3 records:
For COc1cc(OC)c(C(=O)OCC(=O)NCC2CCCCC2)cc1OC the results were UUG fidelity -12, MT1-MMP act inh 5, Env fusion inh -2 and MT1-MMP act inh RFP 1.
Screening O=C(O)c1ccc(COc2ccccc2/C=C2\NC(=O)N(Cc3ccccc3)C2=O)cc1 returned CSC inhib -1, MT1-MMP act inh 0, PABP FP inh 0, Rce1 inh inactive, Env fusion inh 19, eIF4H inh 0 and MT1-MMP act inh RFP 3.
For COc1cc(NC(=O)CSc2nc3c(c(=O)[nH]2)CCCC3)cc(OC)c1OC the results were CSC inhib 5, MT1-MMP act inh 1, PABP FP inh 1, Rce1 inh inactive, Env fusion inh 3, eIF4H inh -10 and MT1-MMP act inh RFP -2.
